# PABP FP inh: PABP-poly(A) binding inhibition; P11940; PABP-poly(A) RNA binding, fluorescence polarization; inhibition, % at 35 µM; 1% of 290,000 active; AID 2014;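 active means 50% or more with normal probe brightness, or confirmed in later tests; about a fifth of its hits are not listed in these tables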;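 further: calls also rest on retests at 20 µM and on dose response follow-up; controls were probe without protein and protein plus probe with vehicle; some compounds called inactive have numbers as strong as hits; many hits fall short of the cut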
# Target sequence (P11940 whole entry, looked up): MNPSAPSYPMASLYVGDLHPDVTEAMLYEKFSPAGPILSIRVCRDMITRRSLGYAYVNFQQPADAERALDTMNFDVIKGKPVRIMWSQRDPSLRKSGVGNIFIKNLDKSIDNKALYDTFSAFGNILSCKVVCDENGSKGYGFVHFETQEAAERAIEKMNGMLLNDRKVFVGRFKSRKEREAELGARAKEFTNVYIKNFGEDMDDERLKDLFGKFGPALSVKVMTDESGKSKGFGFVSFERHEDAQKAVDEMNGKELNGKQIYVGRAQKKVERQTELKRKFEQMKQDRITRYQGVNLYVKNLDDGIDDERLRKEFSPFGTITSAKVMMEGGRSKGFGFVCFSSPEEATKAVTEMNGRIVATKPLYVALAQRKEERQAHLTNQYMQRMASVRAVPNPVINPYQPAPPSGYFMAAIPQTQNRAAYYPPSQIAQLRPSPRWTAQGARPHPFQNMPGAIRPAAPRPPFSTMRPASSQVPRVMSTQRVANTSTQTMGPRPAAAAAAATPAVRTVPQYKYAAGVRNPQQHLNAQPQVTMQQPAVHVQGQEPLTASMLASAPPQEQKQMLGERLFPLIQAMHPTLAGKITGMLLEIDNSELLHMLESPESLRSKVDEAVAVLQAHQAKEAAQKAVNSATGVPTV
# Yeast UUG start: modulators of start codon recognition fidelity in yeast; S. cerevisiae UUG-firefly luciferase reporter, luminescence/redox ratio; activity score, % at 18.7 µM; 0.13% of 350,000 active; AID 602363;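 active means replicate mean at a twofold rise or more, about +100% in these data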;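 further: firefly luciferase made from a UUG start codon reports start codon fidelity; reporter light over untreated wells divided by growth signal over untreated wells; some hits fall short of that in this replicate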
# Rce1 inhib: yeast Ras-converting enzyme inhibition; Q03530; yeast membranes, quenched prenylated peptide cleavage fluorescence; calls only; 0.27% of 290,000 active; AID 2563;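 active means fall in fluorescence gain of 50% or more versus controls, with final raw signal at or below 3038400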;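 further: plate controls were neutral control wells for no effect and wells lacking membranes for full effect; tested at 10 µM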
# eIF4H inh: inhibitors of RNA binding by human eIF4H; AID 2012; inhibition, % at 35 µM; eIF4H fluorescence polarization binding assay; 0.94% of 290,000 active; Q15056;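 active means 50% or more with normal probe brightness, or confirmed in later tests; about a fifth of its hits are not listed in these tables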;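 further: calls also rest on retests at 20 µM and on dose response follow-up; 0% = protein and probe with vehicle and 100% = probe without protein; strong numbers were not always called active; many hits fall short of the cut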
# CSC inhib: blocks cancer stem cells; cancer stem cell-like cells viability, luminescence; inhibition, % at 7.5 µM; 1.1% of 300,000 active; AID 2717;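 active means mean at 75% or more and at least half the replicates too; tested in HMLE shEcad cells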;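 further: 0% = median of negative and 100% = median of positive control wells; the first replicate is given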
# HIV Env fusion: HIV envelope-mediated fusion inhibition; HeLa-JRFL Env/CEM21 cell fusion, luciferase; inhibition, % at 12.3 µM; 1.1% of 360,000 active; AID 651610;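 active means mean replicate inhibition score of at least 50 and every replicate individually at or above 50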;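 further: 0% = plate neutral controls and 100% = maraviroc near 300 nM; one replicate is shown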
# MT1-MMP act inh: MT1-MMP (human) activation inhibition | 0.061% of 360,000 active | GFP/RFP ratio change, % at 20 µM | AID 651647 | HT1080 RFP-PRO-GFP cells, GFP/RFP ratio fluorescence, overnight; percent of plate control window, DMSO zero;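 active means GFP/RFP ratio change of at least 30% with cell ATP level not reduced by more than half and red fluorescence within 50% of control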; further: strong numbers were not always called active
#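 Material: RFP-PRO-GFP reporter HT1080 cells. Dosing: single-point 20 µM compound, 1% DMSO. Controls: DMSO and RFP-L50D-GFP cell wells. Timing: cells overnight before dosing, compound overnight, 37 °C, 5% CO2. Measure: GFP/RFP fluorescence ratio.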
# eIF4H inh retest: also measured in eIF4H inh; calls as there; inhibition, %; compound at 20 µM; confirmation average;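 mean of two retest wells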
# PABP FP inh retest: also measured in PABP FP inh; calls as there; inhibition, %; compound at 20 µM; confirmation repeats;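 mean of two retest wells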
# MT1-MMP act inh RFP: recorded beside MT1-MMP act inh, whose call it bears; RFP signal change, %; measured here: RFP expression control read;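 0 = vehicle wells; hits needed this value within 50% of zero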
# An asterisk follows results filed as active; i = inactive; x = not tested or not shown. Some of the compounds tested; rates above refer to the full screens.
SMILES,PABP FP inh,Yeast UUG start,Rce1 inhib,eIF4H inh,CSC inhib,HIV Env fusion,MT1-MMP act inh,MT1-MMP act inh RFP,others
CCOC(=O)c1c(C)[nH]c(C(=O)CN2C(=O)NC(C)(c3ccc4ccccc4c3)C2=O)c1C (stereo unspecified),-1,-10,i,-9,0,-33,-7,-10,
COCCCNC(=O)C1c2ccccc2Oc2ccccc21,10,-13,i,0,-2,2,0,-3,
Cc1nc2sc3c(c2c(=O)o1)CCC3,10,-9,i,9,6,x,0,0,
COc1cccc(CNC(=O)CCC2CCCN(C(=O)c3cc4ccccc4o3)C2)c1 (stereo unspecified),-1,0,i,-1,1,-2,2,-6,
CCn1c(SCc2nc3ccccc3[nH]2)nnc1-c1cccnc1,-6,x,i,-8,-16,-51,-2,3,
CC(=O)c1ccc(NC(=O)CSc2cn[nH]n2)cc1,-4,12,i,0,-6,0,0,1,
CCOC(=O)C1CCCN(C(=O)C2CCN(c3nnc(-n4cccc4)s3)CC2)C1 (stereo unspecified),4,-9,i,-12,0,14,1,-1,
Cc1cc(C(=O)Nc2cccc(O)c2)co1,2,-23,i,-11,-4,x,-1,5,
CCC1=NN2C(=N)/C(=C/c3cc(C)n(-c4ccccc4)c3C)C(=O)N=C2S1,5,-12,i,-7,0,8,1,-2,
Cc1ccc(C(=O)Nc2cccc3ncccc23)cc1[N+](=O)[O-],-17,x,i,-5,5,-11,0,2,
O=C1CCCC2=C1C(c1ccsc1)CC(=O)N2c1ccccc1 (stereo unspecified),-14,-9,i,-4,-4,-80,0,6,
COc1cc(/C=N/NC(=O)CC2C(=O)NN=C2C)ccc1O (stereo unspecified),-6,-10,i,2,-6,-44,2,6,
O=C(Nc1ccc([N+](=O)[O-])cc1)C1CC1(c1ccccc1)c1ccccc1 (stereo unspecified),-10,x,i,-6,21,9,-7,-10,
CCCn1c(=NC(C)=O)c(C(=O)OCC)cc2c(=O)n3ccccc3nc21,1,x,x,3,-9,-24,4,1,
CCOC(=O)c1c(C)[nH]c(C)c1C(=O)CSc1nc2ccccc2[nH]1,-9,-8,i,4,x,10,-3,0,
CCOC(=O)C1CCN(C(=O)c2ccc3c(c2)C(=O)N(c2ccccc2C)C3=O)CC1,x,x,i,x,-5,85*,-5,-2,
CC(C)COC(=O)C1C2C=CC3(CN(C4CCCC4)C(=O)C13)O2 (stereo unspecified),0,-7,i,-9,-8,-49,1,1,
Cc1cc(C)cc(OCC(=O)Nc2cc(C)on2)c1,2,-15,i,-9,6,-2,5,0,
Cc1ccc(NC(=O)COC(=O)CNC(=O)c2ccc(C)s2)cc1,-8,-1,i,-3,9,-5,1,-2,
CC(Nc1ccc2ccccc2c1)C(=O)N/N=C/c1ccncc1 (stereo unspecified),x,-7,x,x,x,-18,-1,5,
COc1ccccc1NC(=O)c1sc2nc(-c3ccco3)ccc2c1N,40,-2,i,49,x,x,-27,2,
Cn1cnnc1SCC(=O)Nc1ccc(S(N)(=O)=O)cc1,-2,-2,i,-2,-11,-1,4,7,
O=[N+]([O-])c1ccc(OCc2nnc(-c3ccccc3)o2)cc1,-4,x,i,-1,-14,18,-2,1,
O=C(NCC1CCCO1)c1ccc(/C=N/O)nc1 (stereo unspecified),-5,-12,i,-6,-6,x,3,0,
COc1cccc(S(=O)(=O)NCc2ccc3c(c2)OCO3)c1,-3,-8,i,4,1,x,2,-5,

# Seven compounds picked at random from those above, as already listed:
SMILES,PABP FP inh,Yeast UUG start,Rce1 inhib,eIF4H inh,CSC inhib,HIV Env fusion,MT1-MMP act inh,MT1-MMP act inh RFP,others
CC(C)COC(=O)C1C2C=CC3(CN(C4CCCC4)C(=O)C13)O2 (stereo unspecified),0,-7,i,-9,-8,-49,1,1,
CC(=O)c1ccc(NC(=O)CSc2cn[nH]n2)cc1,-4,12,i,0,-6,0,0,1,
CC(Nc1ccc2ccccc2c1)C(=O)N/N=C/c1ccncc1 (stereo unspecified),x,-7,x,x,x,-18,-1,5,
Cn1cnnc1SCC(=O)Nc1ccc(S(N)(=O)=O)cc1,-2,-2,i,-2,-11,-1,4,7,
O=[N+]([O-])c1ccc(OCc2nnc(-c3ccccc3)o2)cc1,-4,x,i,-1,-14,18,-2,1,
CCn1c(SCc2nc3ccccc3[nH]2)nnc1-c1cccnc1,-6,x,i,-8,-16,-51,-2,3,
Cc1cc(C)cc(OCC(=O)Nc2cc(C)on2)c1,2,-15,i,-9,6,-2,5,0,

# New compounds follow.
SMILES,PABP FP inh,Yeast UUG start,Rce1 inhib,eIF4H inh,CSC inhib,HIV Env fusion,MT1-MMP act inh,MT1-MMP act inh RFP,others
Cc1cc(C)c(S(=O)(=O)N2CCN(C(=O)C(C)Cn3nc(C)nc3C)CC2)c(C)c1 (stereo unspecified),-6,-13,i,5,-15,7,1,4,
O=C1Nc2cc(C(=O)NCCCN3CCCC3)ccc2S/C1=C/c1cccc(Cl)c1,x,2,x,x,x,-7,7,3,
CCOC(=O)C(CC(=O)O)N1CCCCC1 (stereo unspecified),1,-18,i,-10,2,x,-6,1,
CC(=O)c1cccc(NC(=S)N2CCN(CCN3C(=O)c4cccc5cccc(c45)C3=O)CC2)c1,0,x,i,5,4,-5,1,2,
Cc1[nH]c2ccccc2c1C(=O)CSc1nc2ccccc2c(=O)n1CCCN1CCOCC1,-7,16,i,-4,8,x,-2,-8,
Cc1ccc(-n2c(SCC(=O)O)nc3sc4c(c3c2=O)CC(C)(C)SC4)cc1,x,-12,x,x,x,-10,-6,4,
COc1cc(OC)c(/C=N/NC(=O)c2ccc(NC(C)=O)cc2)cc1Br,-2,x,i,46,x,-3,-3,1,
ClC(Cl)c1nnc(-c2ccccc2)c(-c2c[nH]c3ccccc23)n1,12,-24,i,-7,-2,40,-3,-8,
NCC(=O)CCC(=O)O,x,-19,i,x,-11,7,3,7,
c1ccc(CC2CCN(Cc3nc(-c4ccccc4)no3)CC2)cc1,-12,1,i,-5,2,8,-4,0,
COc1cc(/C=N/NC(=O)c2ccccc2Cl)ccc1Oc1ccc([N+](=O)[O-])cn1,-15,-4,x,-9,-20,-16,2,5,
CCC(=O)N1CCC(C)(C(=O)Nc2nccc3ccccc23)C1 (stereo unspecified),x,-21,x,x,x,-3,-3,5,
COc1ccc(OCc2cc(C(=O)N(C)Cc3cnccn3)no2)c(Cl)c1,1,-3,i,5,-8,-16,0,0,
C=CCn1c(NC(=O)c2ccccc2)nc2ccccc21,4,-14,i,1,12,-12,0,-6,
CC(Sc1nnc(C(F)(F)F)n1C)C(=O)Nc1ccc(N2CCOCC2)cc1 (stereo unspecified),x,3,x,x,-22,x,-1,-2,
Cc1nc2[nH]c(=O)c3c(n2n1)NC1=C(C(=O)CC(C)(C)C1)C3c1ccc(F)cc1 (stereo unspecified),2,-21,i,2,-1,-12,-3,4,
O=C(Cc1cccs1)Nn1c(Cc2cccs2)nc2ccccc2c1=O,6,0,i,-3,-7,x,-6,-3,
COc1ccc2c(c1)C=C(CN1CCN(Cc3ccccc3C)C(CCO)C1)CO2 (stereo unspecified),5,1,i,8,20,-16,0,-4,
C=CCn1c(NCCc2ccccc2)nc2c1c(=O)n(C)c(=O)n2C,-6,9,i,2,-4,x,-7,-20,
O=C(CSCc1ccccc1Cl)NCCSc1ccccn1,-15,x,i,0,-13,7,-2,-2,
Cc1cccc(OCc2nc3c4c(ncn3n2)-c2ccccc2CC42CCCC2)c1,11,-7,i,-6,0,3,-10,-9,
COc1ccc(CN2CCN(C)CC2)cc1OCc1ccccc1,7,-4,i,-5,1,x,-3,0,
O=C(O)CC1C(=O)OCN1C(=O)OCc1ccccc1 (stereo unspecified),2,-12,i,1,-3,x,5,4,
Cc1ccc(S(=O)(=O)Nc2ccc3c(c2)C(=O)N([C@H](C)CO)C[C@@H](C)[C@@H](CN(C)C(=O)Nc2cccc4ccccc24)O3)cc1,x,-9,x,x,x,-26,0,-3,
Cc1n[nH]c(C)c1S(=O)(=O)N1CCCC(C(=O)O)C1 (stereo unspecified),x,9,x,x,-1,x,1,0,

# Later entries:
SMILES,PABP FP inh,Yeast UUG start,Rce1 inhib,eIF4H inh,CSC inhib,HIV Env fusion,MT1-MMP act inh,MT1-MMP act inh RFP,others
O=C1CC(c2ccccc2Cl)=NN(c2ncnc3ccccc23)C1=O,1,-27,i,55,7,-12,-22,-1,eIF4H inh retest=-16;PABP FP inh retest=6
Cn1nnnc1SCC(=O)Nc1cccc(S(=O)(=O)N2CCCCC2)c1,x,-18,x,x,2,x,1,0,
Cc1ccc(NC(=O)c2ccn(C(=O)Nc3ccccc3)n2)c(C)c1,8,-11,i,0,5,-10,-2,-3,
Cc1ccc(CS(=O)Cc2ccc(C(=O)NC3CCC(C)CC3)o2)cc1 (stereo unspecified),-6,-5,i,-4,-8,-1,0,0,
O=c1[nH]c(-c2ccccc2)c(-c2ccccc2)o1,1,-8,i,2,-6,8,4,7,
CC1Cc2ccccc2N1CC(=O)Nc1ccc(S(N)(=O)=O)cc1 (stereo unspecified),14,x,i,24,-8,0,4,0,
CCOc1ccc2nc(SCC(=O)N3c4ccccc4Sc4ccccc43)c(C#N)cc2c1,-9,x,i,-3,3,9,-18,5,
N#Cc1c(C(F)(F)F)cc(-c2ccccc2Cl)[nH]c1=O,-3,-17,i,3,0,-120,5,0,
COc1ccc(CNC(=O)C23CC4CC(CC(Br)(C4)C2)C3)cc1,0,-4,i,-4,-10,5,0,0,
Cc1cc(NS(=O)(=O)c2ccc(NC(=O)CCSc3ccc(F)cc3)cc2)nc(C)n1,-8,x,i,-14,9,-8,-10,7,
Cc1cccc(C2=NN(c3ccccc3)[C@@H](C(=O)N3CCOC3=O)[C@@H]2c2ccc(F)cc2)c1,x,12,x,x,x,-4,-3,2,
CN(C)CCNC(=O)c1coc(=O)c(Br)c1,8,1,i,13,5,x,-2,1,
C=C1SC(=Nc2c(C)cc(C)cc2C)N(C(=O)c2sc3ccccc3c2Cl)C12CCCCC2,5,-15,i,-7,6,12,-3,-4,
CCC(=O)Nc1nonc1-c1nc2ccccc2n1CC(C)C,-7,-5,i,-8,6,42,-14,-13,
Cc1ccc(CN2C(=O)CSC(C)C2=O)cc1 (stereo unspecified),6,-20,i,-18,-25,7,0,0,
Cc1ccc(Cl)cc1N1CCN(C(=O)CSc2nnc3n2C(C)(C)Cc2ccccc2-3)CC1,-4,4,i,8,41,76*,-12,-25,
C/C(=N/NS(=O)(=O)c1ccc(Br)cc1)c1c[nH]c2ccccc12,3,-23,i,-9,x,66*,1,1,
CC1(C)Cc2cccc(OCC(O)CN3CCN(c4ccccn4)CC3)c2O1 (stereo unspecified),-2,-1,i,-7,x,x,3,4,
COc1ccc(Oc2cccc(Cl)c2CNC(=O)CCCC(=O)O)cc1,3,-8,i,-9,2,3,-2,3,
COc1ccccc1N(C)S(=O)(=O)c1ccc(C(=O)OCC(=O)NCc2cccs2)cc1,-6,-7,i,-3,-1,0,-1,-1,
Cc1cccc(CNc2ccc(C(CC(N)=O)NC(=O)c3ccccc3)cc2[N+](=O)[O-])c1 (stereo unspecified),0,-11,i,-12,60,-3,11,-8,
CCCn1cc(SCC(=O)NCc2ccco2)c2ccccc21,-7,-11,i,-6,1,17,-1,-1,
CC(C)(C)OC(=O)N[C@H](Cc1ccccc1)C(=O)N1CCC(C(=O)O)CC1,21,-14,i,-8,-2,x,-3,-2,
CCN(C(=O)CSc1ccc2c(c1)OCCO2)C1CCS(=O)(=O)C1 (stereo unspecified),1,14,i,-8,9,-34,-2,-4,
Cc1ccc(OCCOc2ccc(Br)cc2/C=N\NC(N)=O)cc1,-12,-17,i,-7,-10,-5,-3,1,
O=C(CSc1nnc(Cn2cnc3ccccc32)o1)Nc1cccc2ccccc12,-3,-19,i,16,5,-63,-1,0,

# High-throughput results (PubChem BioAssay)
